VDR inh: inhibitors of human vitamin D receptor; P11473; VDR-SRC2-3 peptide fluorescence polarization, 2 h; Potency, µM, inactives show max response, negative = inhibition, most hits filed as inhibitors; 400,000 tested, 0.93% active; active = well fitted inhibition curve with a large enough effect; inconclusive = small, poorly fitted or top-dose-only effect, or another doubt; inactive = no such curve, though single readings can be large or run the other way; also: series mostly up to about 120 µM
Target sequence (P11473 whole entry, looked up): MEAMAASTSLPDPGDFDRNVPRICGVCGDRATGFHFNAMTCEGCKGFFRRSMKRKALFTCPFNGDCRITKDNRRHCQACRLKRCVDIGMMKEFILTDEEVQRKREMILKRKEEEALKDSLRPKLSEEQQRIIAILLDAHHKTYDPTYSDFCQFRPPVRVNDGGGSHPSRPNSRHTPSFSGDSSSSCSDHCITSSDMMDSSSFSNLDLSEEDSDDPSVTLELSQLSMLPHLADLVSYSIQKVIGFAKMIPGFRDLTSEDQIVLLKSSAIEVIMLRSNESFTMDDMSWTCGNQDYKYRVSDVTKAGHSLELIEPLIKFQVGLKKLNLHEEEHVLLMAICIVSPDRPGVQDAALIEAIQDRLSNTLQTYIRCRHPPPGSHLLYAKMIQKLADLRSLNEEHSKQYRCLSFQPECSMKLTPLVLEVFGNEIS
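Inhibition of the VDR/SRC2-3 peptide interaction is quantified by fluorescence polarization. Compounds (23 nl, pintool) incubate with the reagents for 2 hours at ambient room temperature.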
* marks the source's active call; other numbers are inactive results; ? = inconclusive; [ ] = remark or other dose. % is scaled to controls: 0 for no effect and ±100 for the full control effect; potency is read from the fitted curve at half-maximal effect. Only part of the results is shown; rates above refer to the full screens.

entry	SMILES	VDR inh
1	Cc1ccc(NC2CCCN(C(=O)c3cn4cc(Cl)ccc4n3)C2)cc1C (centres undefined)	-9.1%
2	Cc1ccccc1-c1noc(-c2ccc(Cl)cc2)n1	-18.2%
3	O=S(=O)(CCc1nc2ccccc2o1)c1ccc(Cl)c(Cl)c1	18.3%
4	Cc1nn2c(=O)cc(COC(=O)c3ccc(NC(=O)c4ccc(C(C)(C)C)cc4)cc3)nc2s1	0.9%
5	COc1ccccc1C1NC(=O)NC(C)=C1C(=O)OCc1ccccc1 (centres undefined)	5.8%
6	CSCC[C@H](N)C(=O)NC[C@H]1CC[C@H](C(=O)N[C@@H](Cc2ccccc2)C(=O)O)CC1	105.2%[activator]
7	O=C(Nc1ccc(Oc2ccc(Br)cc2)cc1)C1=CC=CN2CCS(=O)(=O)N=C12	6.8%
8	COc1ccc2c(c1)CC/C(=C/c1cc(OC)c(OC)c(OC)c1)C2=O	-19.8%
9	N#Cc1cccc(NC(=O)N2CC[C@@]3(CCCNC3)C2)c1	-14.5%
10	COc1ccccc1CN1CCCCCC1	-6.0%
11	Cc1ccc(CNC(=O)c2ccc(Cn3nc(C)c(Cl)c3C)o2)cc1	-15.2%
12	O=C(COc1ccccc1)N=C1SC2CS(=O)(=O)CC2N1c1ccccc1F (centres undefined)	11.8%
13	Cc1ccc(C)c(NC(=O)Cn2c(=O)n(Cc3nc(C)no3)c(=O)c3cc4c(cc32)OCO4)c1	14.3%
14	O=C1NC(Nc2nc3ccccc3s2)(C(F)(F)F)C(=O)N1C1CCCCC1 (centres undefined)	-4.9%
15	Cc1ccc(S(=O)(=O)NCCN2CCN(S(=O)(=O)c3ccccc3Cl)CC2)cc1	-4.8%
16	C=CCn1c2ccccc2c2nnc(SCC(=O)NC(C(=O)OC)C(C)C)nc21 (centres undefined)	2.2%
17	CCN(CC)c1ccc(NC(=O)CCS(=O)(=O)c2ccc(Br)cc2)c(C)c1	6.8%
18	CC1CCc2c(sc3ncnc(SCC(=O)Nc4ccc(C(=O)O)cc4)c23)C1 (centres undefined)	1.8%
19	Cc1cc(-c2ccccc2)nc(N/N=C/c2ccccc2)n1	-3.7%
20	C[C@H]1C=C(C(=O)N2CCN(Cc3ccc4c(c3)OCO4)CC2)O[C@@H](OCc2ccc(CO)cc2)C1	11.7%
21	COc1ccc(C(=O)C2CCCN(C(=O)c3ccnn3C)C2)c(C)c1 (centres undefined)	-8.4%
22	O=C(O)CCCCCN=C1CCc2ccccc2N1	3.5%
23	Cc1ccc(NC(=O)CC2SC(=NC3CCCCC3)NC2=O)cc1 (centres undefined)	-8.1%
24	CN(C)/C=C1\N=C(c2ccc3c(c2)OCO3)OC1=O	10.5%
25	O=c1[nH][nH]c(C(F)(F)F)c1C=Nc1ccc(Cl)cc1	-7.7%
26	COc1ccc(NC(=O)Cn2nc(-c3ccncc3)ccc2=O)cc1Cl	0.6%
27	CCN(c1ccccc1)S(=O)(=O)c1nnc(NC(=O)COc2ccccc2F)s1	-9.3%
28	C[C@H]1CN=C(N(C)C)N1CCC1CCCCC1	-8.3%
29	N#Cc1cccc(CN2CCC(=O)N([C@H](CO)Cc3ccccc3)CC2)c1	-14.7%
30	CSc1nc(N)c2ncn([C@@H]3O[C@H](COP(=O)(O)OP(=O)(O)O)C(O)[C@H]3O)c2n1 (some centres undefined)	2.2%
31	Cc1cccc(NC(=O)c2ccc(-n3cccn3)c([N+](=O)[O-])c2)c1	3.3%
32	CC(=O)Oc1ccc2occ(C(=O)c3ccccc3)c2c1	22.3%
33	O=C(NC(=S)Nc1ccccc1)c1ccc(Br)o1	?
34	CCOC(=O)N1CCN(C(=O)COC(=O)c2cc(Cl)c(O)c(Cl)c2)CC1	3.2%
35	Cc1csc(NC(=O)c2cc(C)nc3ccccc23)n1	-11.0%
36	COc1ccc(NC(=O)c2ccco2)cc1NC(=O)c1cccs1	-4.6%
37	CCn1cc(C(=O)OCC(=O)N(C)Cc2ccccc2)c(=O)c2ccc(C)nc21	-5.3%
38	COCCNc1ncnc2c1c(-c1ccccc1)cn2-c1cccc(Cl)c1	-0.4%
39	Cc1ccc2[nH]c(=O)c(CN(C)C(=O)c3cccs3)cc2c1	-12.5%
40	Cc1ccc(OCCSc2nc3ccc(NC(=O)COc4ccc(C)cc4)cc3s2)cc1	6.5%
41	COc1ccc2c(c1)C1NC(=S)N[C@@](C)(O2)C1C(=O)Nc1ccccc1 (some centres undefined)	-13.9%
42	CC1(NC(=O)Cn2cc(C(F)(F)F)ccc2=O)CCS(=O)(=O)C1 (centres undefined)	-18.0%
43	Cc1cc2nccnc2cc1C	-5.0%
44	COc1ccc(NC(=O)c2sc(SCc3ccccc3)nc2N)cc1	1.5%
45	COc1ccc(Nc2nc3c(C)cccc3cc2C#N)cc1	-5.0%
46	CC(NC(=O)c1ccc(C(C)(C)C)cc1)C(=O)O (centres undefined)	3.3%
47	CC(C)CNC(=S)NC(=O)c1ccc([N+](=O)[O-])cc1	2.3%
48	CC(=O)Nc1ccc(S(=O)(=O)N2CCN(C(=O)N3CCOCC3)CC2)cc1	0.3%
49	CCN(CC)CCNS(=O)(=O)c1ccc(Cl)cc1	22.8%
50	Nc1nc(SCc2ccccc2)c2ncn(C3OC(CO)C(O)C3O)c2n1 (centres undefined)	-11.5%

The list goes on.
entry	SMILES	VDR inh
51	Cc1coc2c(C)c3oc(=O)c(CCC(=O)NCCC(=O)O)c(C)c3cc12	-3.5%
52	CCNC(=O)N1C(=O)C2(OCCO2)c2ccccc21	5.5%
53	CCN(CC)S(=O)(=O)c1ccc(C(=O)NCCSc2c(-c3ccc(C)cc3)[nH]c3ccccc23)cc1	4.8%
54	Oc1ccc(Cl)cc1C1C=C(c2ccc3c(c2)OCO3)NC(c2ccc(F)c(Br)c2)N1 (centres undefined)	?
55	C=CC[n+]1c(-c2ccccc2)csc1NC(C)(C)C	19.4%
56	Cc1cc(Cl)cc(Cl)c1OCCN1CCCC1	-12.0%
57	CC1(C)Cc2c(cnn2-c2ccc(F)cc2)C(NC(=O)CCN2CCCC2=O)C1 (centres undefined)	?
58	CCOc1ccc(C2N(c3cc(C)on3)C(=O)C3CCCN32)cc1OC (centres undefined)	-26.6%
59	Cc1cccc2sc(N(CCN(C)C)C(=O)C3CCN(S(=O)(=O)c4cccs4)CC3)nc12	-13.0%
60	CCN(C(=O)c1cc2c(=O)oc3ccccc3c2s1)c1ccccc1F	11.4%
61	N#C/C(=C/c1ccc(O)c(O)c1)C(=O)NCc1ccc(Cl)cc1	-8.3%
62	CC(=O)Nc1nc(C)c(Oc2cccc(C(F)(F)F)c2)c(=O)[nH]1	-9.0%
63	O=C(CSc1nc(=O)n2ccccc2n1)N1N=C(c2cccs2)CC1c1ccc(F)cc1 (centres undefined)	5.1%
64	NC(=O)c1ccsc1NC(=O)COC(=O)/C=C/c1ccc([N+](=O)[O-])cc1	8.1%
65	CC(=O)c1ccccc1OC(=O)CCN1C(=O)C2C3C=CC(C4CC34)C2C1=O (centres undefined)	5.3%
66	CS(=O)(=O)Nc1cccc(C2=NN(C(=O)c3ccccc3)C(c3cccs3)C2)c1 (centres undefined)	-5.3%
67	COC(=O)c1ccccc1NC(=O)C1=CC(c2ccc(C)cc2)=NS(=O)(=O)N1C	16.5%
68	CCOc1ccc(CCNC(=O)Cn2c(=O)c3cccn3c3ccc(F)cc32)cc1OCC	25.7%
69	O=C1CC(SC2=NCCS2)C(=O)N1c1cccc(Cl)c1Cl (centres undefined)	-10.6%
70	COc1ccc(CCNC(=O)Cn2c(=O)n(CCCC(=O)NCc3ccco3)c(=O)c3sccc32)cc1OC	-0.5%

3 structures out of the list, sorted by molar mass, smallest number first.
entry	SMILES	VDR inh
62	CC(=O)Nc1nc(C)c(Oc2cccc(C(F)(F)F)c2)c(=O)[nH]1	-9.0%
66	CS(=O)(=O)Nc1cccc(C2=NN(C(=O)c3ccccc3)C(c3cccs3)C2)c1 (centres undefined)	-5.3%
70	COc1ccc(CCNC(=O)Cn2c(=O)n(CCCC(=O)NCc3ccco3)c(=O)c3sccc32)cc1OC	-0.5%

Continued:
entry	SMILES	VDR inh
71	Cc1cc(OCC(=O)NCc2cccnc2)c2c(C)c(C)c(=O)oc2c1	-19.2%
72	CCC(/C=N/Nc1ccc(S(=O)(=O)N2CCCC2)cc1[N+](=O)[O-])CC	7.2%
73	Cc1[nH]c(=S)c(C#N)c(C)c1CCC#N	18.0%
74	O=C(COC(=O)C1CC2C=CC1C2)Nc1cccc(S(=O)(=O)N2CCCCCC2)c1 (centres undefined)	8.8%
75	C[C@@H](NC(=O)c1nc[nH]c1C(=O)NCC(=O)OC(C)(C)C)c1ccccc1	-6.5%
76	O=C(CSc1nnc(COc2ccc(Br)cc2)o1)NC1CCCCC1	5.6%
77	CC1(C)CC23C(=O)CCC(O)C2(C)CCC13 (centres undefined)	13.2%
78	COc1ccc(-c2nc(C(=O)NCCCN3CCOCC3)cc3c2[nH]c2ccccc23)cc1OC	-18.4%
79	Cc1cccc(NC(=S)N/N=C2\CC(C)(C)Oc3ccc(O)cc32)c1	10.8%
80	CCN(CC)C1CCN(C(=O)c2ccc(OC3CCN(CCc4ccccc4)CC3)cc2)C1 (centres undefined)	3.8%
81	O=S(=O)(/N=C(/c1ccccc1)N1CCCCC1)c1ccccc1	1.9%
82	Cc1ccccc1NC(=O)CCC(=O)N/N=C/c1ccc(F)cc1	-24.2%
83	Cc1onc(-c2ccccc2)c1-c1nnc(COC(=O)c2ccc(O)cc2)o1	-12.0%
84	CCNc1nnc(-c2ccncc2)s1	-1.0%
85	CCc1ccc(-c2nn(-c3cc(Cl)ccc3[N+](=O)[O-])c(=O)c3ccccc23)cc1	21.8%
86	CN(Cc1ccon1)C(=O)CC1C(=O)NCCN1Cc1ccccc1C(F)(F)F (centres undefined)	12.5%
87	N#C/C(=C\c1ccc(OC(=O)c2ccc(Br)s2)cc1)c1nc2ccccc2[nH]1	-6.5%
88	CC1CCCN(S(=O)(=O)c2coc(C(N)=O)c2)C1 (centres undefined)	2.0%
89	COc1ccc(CC(=O)N(Cc2nc(-c3ccc(C)cc3)no2)C(C)C)cc1	-12.0%
90	CS(=O)(=O)Cc1ccc(C(=O)N2CCCC2c2cccs2)cc1 (centres undefined)	1.7%
91	COc1ccc(Cl)cc1NC(=S)Nc1ccccc1F	-4.3%
92	COCCCN(CC(=O)O)S(=O)(=O)c1cccc(Cl)c1	0.5%
93	CN1CCN(C(=O)/C(=C\c2cccnc2)NC(=O)c2cccc(Br)c2)CC1	12.3%
94	CCC(C(=O)NCCc1ccc(SC)cc1)n1nc(C)c2c(C)n(-c3ccc(C)cc3)nc2c1=O (centres undefined)	6.6%
95	CC(NC(=O)Nc1ncccn1)(C(F)(F)F)C(F)(F)F	-0.8%
96	Cc1cc(C)c2c(=O)[nH]c(SCc3ccccc3)nc2n1	4.6%
97	C=C(C)CN(CC)C(=O)CN1C(=O)NC2(CCCc3ccccc32)C1=O (centres undefined)	-2.3%
98	Cc1ccnc(NC(=O)CCC(=O)N(CC(=O)NCc2ccccc2)Cc2cccs2)c1	1.4%
99	CCCn1c(SCC(=O)N2CC(=O)Nc3ccccc32)nc2ccccc21	-26.4%
100	COc1ccccc1CNc1nc(-c2ccoc2)nc2ccccc12	?
101	[N-]=[N+]=NC[C@H](Cc1ccccc1)N1CCN(Cc2ccccc2)CCC1=O	-21.5%
102	CCn1cc(C(=O)N(C)c2ccc(OC)cc2OC)c2cc(OC)c(OC)cc2c1=O	-16.0%
103	COc1c(C)cc(Br)cc1C(=O)Nc1cccc(NC(=O)c2ccco2)c1	0.6%
104	COC(=O)c1c(NC(=O)c2ccc(N(C)S(=O)(=O)c3ccc(C)cc3)cc2)sc2c1CCCC2	-20.4%
105	COCc1cc(C)nc(Sc2nc3c(c(=O)n(C)c(=O)n3C)n2C)c1C#N	1.8%
106	C=CCOC(=O)C1=C(C)Nc2nnnn2C1c1cccc(OC)c1OC (centres undefined)	-2.1%
107	CCOC(=O)C1(C)NC(c2ccc(OC)cc2OC)C2C(=O)N(c3cccc(OC)c3)C(=O)C21 (centres undefined)	-5.2%
108	CC(=NNC(=S)N1CC2CCC(CC2)C1)c1cccc(C)n1	-7.6%
109	CN(C(=O)c1cccc(NC(=O)Cc2ccccc2)c1)c1ccccc1	-7.5%
110	Cc1cc(C)c(S(=O)(=O)N2CCCCC2CCNC(=O)C(=O)NCC2CCCO2)c(C)c1 (centres undefined)	-5.4%
111	COc1ccccc1C(=O)OCc1cc(=O)n2ccsc2n1	-3.8%
112	COc1ccccc1CNS(=O)(=O)c1ccc(-c2cc(C(F)(F)F)on2)s1	24.0%
113	O=C1C2C3C=CC(C2C(=O)N1c1ccc(O)cc1)C1C2C(=O)N(c4ccc(O)cc4)C(=O)C2C31 (centres undefined)	0.5%
114	Cc1c(C)[n+](=O)c(-c2ccco2)c(C)n1[O-]	5.8%
115	CCN(CC(=O)Nc1c(F)cccc1F)C(=O)c1ccc(N2CCCC2)c([N+](=O)[O-])c1	-11.5%
116	C[C@H](CO)N1C[C@H](C)[C@@H](CN(C)S(C)(=O)=O)Oc2ccc(NC(=O)Nc3ccc4c(c3)OCO4)cc2C1=O	14.3%
117	O=C(c1ccc2c(c1)OCCO2)C1CCN(S(=O)(=O)c2cccc(F)c2)CC1	-7.9%

Given as labelled records: part of the list above.
#37 CCn1cc(C(=O)OCC(=O)N(C)Cc2ccccc2)c(=O)c2ccc(C)nc21
- VDR inh: -5.3%

#88 CC1CCCN(S(=O)(=O)c2coc(C(N)=O)c2)C1 (centres undefined)
- VDR inh: 2.0%

#36 COc1ccc(NC(=O)c2ccco2)cc1NC(=O)c1cccs1
- VDR inh: -4.6%

#74 O=C(COC(=O)C1CC2C=CC1C2)Nc1cccc(S(=O)(=O)N2CCCCCC2)c1 (centres undefined)
- VDR inh: 8.8%

High-throughput results: PubChem BioAssay, National Center for Advancing Translational Sciences (NCATS)
